RE007 growth inh: less growth of the S. pombe RE007 Vpr strain; S. pombe RE007 Vpr strain, BacTiter-Glo ATP luminescence, 24 h; control for the full effect not named in the record; Potency, µM (doses to about 92.2 µM), without a hit: top-dose activity change, negative = less growth; 360,000 tested, 0.21% active; AID 651644; active = well fitted falling curve with a large enough effect; inconclusive = small, poorly fitted or top-dose-only effect; inactive = no such curve, though single readings can be large or run the other way;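 further: on the % scale 0 is the no-effect control and ±100 the full control effect; nearly all actives have a fitted effect of over 50% in size; the assay follows cell death caused by Vpr and the record does not say whether a fall means rescue or toxicity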
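Fission yeast RE007 carrying one integrated HIV-1 vpr copy, seeded at OD 0.01 in PMG+AL medium with 23 nL pinned compound. Grown 24 h at 30 degrees; viability read by BacTiter-Glo luminescence after 5 min.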
MARV entry inh: Marburg virus entry inhibition; Potency, µM (highest dose often 37.8 µM), for inactives: at the top dose activity change, negative = inhibition, most hits filed as inhibitors; Marburg virus pseudotyped entry inhibition, cell reporter; control for the full effect not named in the record; about a third of the inactives were read at about 46 µM; 300,000 tested, 1.8% active; AID 540276; active = well fitted inhibition curve with a large enough effect; inconclusive = small, poorly fitted or top-dose-only effect, or effect the other way; inactive = flat fitted curve, though single readings scatter; tested in HEK293 cells; about a fifth of its hits are not listed in these tables; further: on the % scale 0 is the no-effect control and ±100 the full control effect; luciferase read-out
StopGo reporter: FMDV 2A StopGo reporter, luciferase signal; Potency, µM (series often up to 57.9 µM), inactives show at the highest dose signal change, negative = less light; 410,000 tested, 1.2% active; human cells with a luciferase reporter of 2A StopGo recoding; control for the full effect not named in the record; AID 1159524; active = well fitted falling curve with a large enough effect; inconclusive = small, poorly fitted or top-dose-only effect; inactive = no such curve, though single readings can be large or run the other way; tested in HEK293T cells; further: on the % scale 0 is the no-effect control and ±100 the full control effect; nearly all actives have a fitted effect of over 45% in size; luciferase light after 4 h
NS1 function inh: inhibitors of influenza NS1 protein function. S. cerevisiae slowed by influenza A NS1, growth recovery by OD600. Potency, µM (top dose mostly 46.1 µM), without a hit: at the top dose activity, positive = more growth. 270,000 tested, 0.4% active; further: actives are rising curves; nearly all actives have a fitted effect of over 50% in size
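In this qHTS, NS1 from influenza A is expressed in budding yeast, where it slows growth. Cells are switched from glucose to 2% galactose medium (pH 6.0, -URA), treated with compound, and growth recovery is read at OD600.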
Cruzain inh Det: cruzain (T. cruzi) inhibition with detergent. purified cruzain, Z-FR-AMC fluorescence, 0.01% Triton. P25779. Potency, µM, without a hit: max response, negative = inhibition, actives largely listed as inhibitors. 200,000 tested, 0.43% active; active means well fitted curve in the direction sought with a large enough effect; inconclusive means small, poorly fitted or top-dose-only effect, or another doubt; inactive means no such curve, though single readings can be large; an effect the other way counts as inactive or inconclusive;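 further: plate controls were neutral wells for no effect and buffer without enzyme for full effect; nearly all actives have a fitted effect of over 40% in size; top concentration of the series not given in the record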
Target sequence (P25779 123-467 limits assumed): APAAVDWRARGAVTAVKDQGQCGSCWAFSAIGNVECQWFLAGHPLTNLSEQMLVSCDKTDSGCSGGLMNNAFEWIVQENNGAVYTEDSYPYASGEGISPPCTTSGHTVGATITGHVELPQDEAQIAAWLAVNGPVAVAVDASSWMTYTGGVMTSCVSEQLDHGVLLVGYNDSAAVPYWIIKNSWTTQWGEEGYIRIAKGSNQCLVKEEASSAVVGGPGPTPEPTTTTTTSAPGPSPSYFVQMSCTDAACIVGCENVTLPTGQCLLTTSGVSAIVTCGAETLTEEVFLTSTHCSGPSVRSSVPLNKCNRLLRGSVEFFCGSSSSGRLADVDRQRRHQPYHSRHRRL
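Sodium acetate buffer (100 mM, pH 5.5) containing 5 mM DTT and 0.01% Triton X-100 hosted 1.5 nM cruzain and test compound for 15 min at room temperature. Cleavage of 2 uM Z-FR-AMC was then tracked by fluorescence.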
Lassa entry inh: Lassa virus entry inhibition; Lassa virus pseudotype entry inhibition, cell reporter; control for the full effect not named in the record; Potency, µM (doses to about 37.9 µM), without a hit: at the top dose activity change, negative = inhibition, hits mostly inhibitors; 300,000 tested, 1.2% active; active means well fitted inhibition curve with a large enough effect; inconclusive means small, poorly fitted or top-dose-only effect, or effect the other way; inactive means flat fitted curve, though single readings scatter; tested in HEK293 cells; further: on the % scale 0 is the no-effect control and ±100 the full control effect; nearly all actives have a fitted effect of over 50% in size; luciferase read-out
SARS PLpro yeast: SARS-CoV PLP inhibition in yeast | S. cerevisiae expressing SARS-CoV PLpro, growth rescue; control for the full effect not named in the record | 330,000 tested, 0.19% active | Potency, µM (titrated, usually from 32.9 µM), inactives show at the top dose activity, positive = growth rescue; further: 0% is about no effect; nearly all actives have a fitted effect of over 55% in size; growth read by luminescence after 48 h
Cruzain noTriton: cruzain (T. cruzi) inhibition without detergent; purified cruzain, Z-FR-AMC fluorescence, no detergent; Potency, µM, without a hit: max response, negative = inhibition, most hits filed as inhibitors; AID 1476; 200,000 tested, 2.3% active; P25779; active means well fitted curve in the direction sought with a large enough effect; inconclusive means small, poorly fitted or top-dose-only effect, or another doubt; inactive means no such curve, though single readings can be large; an effect the other way counts as inactive or inconclusive;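 further: plate controls were enzyme without inhibitor for no effect and buffer without enzyme for full effect; nearly all actives have a fitted effect of over 40% in size; top concentration of the series not given in the record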
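Detergent-free condition (0.00005% Triton X-100) in acetate buffer pH 5.5 with DTT. 1.5 nM enzyme and compound were pre-mixed 15 min, then 2 uM Z-FR-AMC substrate added; reaction progress from fluorescence change between first and third reads (60 s).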
Active calls of the source: *; ? = inconclusive; nt = not tested or not shown; & = joins results of further samples; [ ] = remark or other dose. Unless noted, the call rests on the fitted dose curve; in most records, active means well fitted rising curve with a large enough effect; inconclusive means small, poorly fitted or top-dose-only effect; inactive means no such curve, though single readings can be large or run the other way. Potency means the concentration at half of the fitted maximal effect. Not a hit list; any-hit rate near 4.7%.

SMILES	RE007 growth inh	MARV entry inh	StopGo reporter	NS1 function inh	Cruzain inh Det	Lassa entry inh	SARS PLpro yeast	Cruzain noTriton
COc1ccc(C2NC(=S)NC3=C2CCCC3=C2SCCS2)cc1 (stereo not given)	10%	?	0%	nt	nt	-14%	2%	nt
CCc1ccc(-c2cc(C(F)(F)F)n3nc(C(=O)Nc4c(C)nn(Cc5ccc(F)cc5)c4C)cc3n2)s1	-5%	?	?	15%	1.0%	3%	10%	?
CCOC(=O)N1CCN(C(=O)C2CCN(C(=O)c3ccc([N+](=O)[O-])cc3)CC2)CC1	-21%	-2%	-18%	-1%	nt	17%	-5%	nt
O=C(NCCC1CCCCN1S(=O)(=O)c1ccc(F)cc1)C(=O)Nc1ccccc1 (stereo not given)	3%	-25%	-2%	nt	nt	-23%	-5%	nt
Cc1cc(C)cc(C(=O)Oc2coc(CSc3nnc(NC(=O)C4CC4)s3)cc2=O)c1	16%	?	-27%	4%	-3.5%	-1%	14%	3%
Cc1ccc2nc(C)c3c(c2c1)SCC3	-13%	1%[46.1 µM]	6%	-31%	nt	18%	-3%	nt
CC(NC(=O)COC(=O)CSc1ccc(F)cc1)c1ccc(F)cc1 (stereo not given)	-10%	-11%	-25%	nt	nt	2%	2%	nt
Cn1cc(S(=O)(=O)Nc2cccc3ccccc23)c(=O)n(C)c1=O	12%	?	3%	2%	nt	5%	4%	nt
C/C(=N\NC(=O)CCC(=O)NCc1ccccc1)c1ccc([N+](=O)[O-])cc1	-9%	-3%	-12%	nt	nt	-1%	5%	nt
CCN(CC)N=Nc1ccc(S(=O)(=O)Nc2nc(C)cc(C)n2)cc1	3%&-1%	-18%[46.1 µM]	52%&90%[activator]	3%	nt	-12%[46.1 µM]	0%	nt
Cc1cccc(N2CCN(C(=O)CN3C(=O)COc4ccc(S(=O)(=O)N5CCOCC5)cc43)CC2)c1C	nt	-2%[46.1 µM]	-8%	nt	-5.0%	17%[46.1 µM]	nt	?
COC(=O)c1ccc(Oc2nc(C(N)=O)cc(-c3ccccc3)n2)cc1	-17%	-2%	?	-33%	-1.7%	-8%	6%	16%
CCOC(=O)c1cc(-c2cccs2)nn1CCC#N	17%	0%	7%	?	-0.5%	6%	?	8%
COc1ccc(-c2nnc(CSc3ncnc4sc5c(c34)CCC5)o2)cc1OC	-7%	-4%&4%	0%	-35%	-0.4%	-5%	-2%	?
Nc1ncc(-c2cc3ccccc3oc2=O)s1	-25%	-13%[46.1 µM]	21%	-62%	-7.6%	-24%	-14%	?
Cc1nc(SCc2ccccc2)c(C(F)(F)F)c(=O)[nH]1	6%	2%	-11%	17%	2.3%	13%	-7%	-4%
CCCCCCC(=O)Nc1nc(C)c(-c2csc(Nc3cc(Cl)ccc3OC)n2)s1	-8%	5%	-15%	10%	0.5%	nt	1%	3.2µM*
COc1ccc(C(=O)c2ccc(N3CCN(C4CC(=O)NC4=O)CC3)cc2)cc1F (stereo not given)	-20%	7%	?	-7%	-8.5%	-14%	2%	?
CCOC(=O)CC1=C(C(=O)OCC)C2(C(=O)Nc3ccccc32)C(C#N)=C(N)O1 (stereo not given)	-11%	3%&3%	-11%	-3%	-3.4%	10%	2%	-2%
Cc1ccc2nc(-c3ccccn3)cc(C(=O)NC3CCN(C)CC3)c2c1	nt	1%	nt	3%	0.5%	nt	-1%	2%

Entries above that contain fluorine:
SMILES	RE007 growth inh	MARV entry inh	StopGo reporter	NS1 function inh	Cruzain inh Det	Lassa entry inh	SARS PLpro yeast	Cruzain noTriton
CCc1ccc(-c2cc(C(F)(F)F)n3nc(C(=O)Nc4c(C)nn(Cc5ccc(F)cc5)c4C)cc3n2)s1	-5%	?	?	15%	1.0%	3%	10%	?
O=C(NCCC1CCCCN1S(=O)(=O)c1ccc(F)cc1)C(=O)Nc1ccccc1 (stereo not given)	3%	-25%	-2%	nt	nt	-23%	-5%	nt
CC(NC(=O)COC(=O)CSc1ccc(F)cc1)c1ccc(F)cc1 (stereo not given)	-10%	-11%	-25%	nt	nt	2%	2%	nt
Cc1nc(SCc2ccccc2)c(C(F)(F)F)c(=O)[nH]1	6%	2%	-11%	17%	2.3%	13%	-7%	-4%
COc1ccc(C(=O)c2ccc(N3CCN(C4CC(=O)NC4=O)CC3)cc2)cc1F (stereo not given)	-20%	7%	?	-7%	-8.5%	-14%	2%	?

Next section.
SMILES	RE007 growth inh	MARV entry inh	StopGo reporter	NS1 function inh	Cruzain inh Det	Lassa entry inh	SARS PLpro yeast	Cruzain noTriton
CCn1cc(SCC(=O)NCC2CCCO2)c2ccccc21 (stereo not given)	-1%	nt	0%	-49%&-1%	nt	nt	-1%	nt
CN(C)c1ccc(NC(=O)c2cccc([N+](=O)[O-])c2)c2ccccc12	9%	?	2%	-17%	nt	16%[46.1 µM]	2%	nt
CCOC(=O)Cn1cnc2c(nnn2-c2ccc(C)cc2)c1=O	2%	0%	0%	-5%	0.9%	22%	5%	3%
NS(=O)(=O)c1cccc(NC(=O)COC(=O)CC2Sc3ccccc3NC2=O)c1 (stereo not given)	3%	0%	36%[activator]	nt	nt	14%	-3%	nt
COCC(=O)N1CCCC(C(=O)c2ccc3c4c(cccc24)CC3)C1 (stereo not given)	-2%	nt	10%	2%	nt	nt	0%	nt
O=C(CSC1CS(=O)(=O)c2cc([N+](=O)[O-])ccc21)NNC(=O)c1ccc(Cl)cc1 (stereo not given)	-17%	-1%[46.1 µM]	-23%	-5%	nt	5%[46.1 µM]	-2%	nt
Cc1cc(C)nc(NC(=O)/C=C/c2ccc3c(c2)OCO3)c1	-19%	?	5%	12%	-3.3%	?	-7%	-15%
O=C(NCCCN1CCOCC1)C1CCN(S(=O)(=O)c2ccccc2)CC1	-9%	23%	-14%	nt	nt	?	5%	nt
COc1ccc(CNC(=O)CN(Cc2ccc(C)cc2)S(=O)(=O)c2ccc(Cl)cc2)cc1	-17%	-4%	-22%	-4%	2.1%	6%	-3%	-9%
COc1ccc2[nH]cc(C(=O)CN3CCCC(C)C3)c2c1 (stereo not given)	22%	13%	7%	5%	-2.0%	6%	-2%	-3%
CC(C)[C@H](NS(=O)(=O)c1ccccc1)C(=O)OCC(=O)NC(=O)c1cccn1C	9%	-1%	22%	3%	-14%	-6%	10%	1%
CC(=O)Nc1sc(C)c(C)c1C(=O)OCC(=O)N(CC(C)C)c1c(N)n(Cc2ccccc2)c(=O)[nH]c1=O	-9%	10%[46.1 µM]	-10%	nt	nt	5%	-6%	nt
CCOc1ccc(CN2CCN(Cc3cc4ccccc4o3)CC2CCO)cc1 (stereo not given)	-17%	nt	-25%	1%	nt	nt	1%	nt
O=C(Nc1c(-c2ccccc2)nc2ccccn12)c1ccccc1	-12%	-16%	-13%	-21%	nt	-9%	3%	nt
O=C(NC(=S)NCc1ccccc1)c1cccnc1	-18%	1%[46.1 µM]	9%	nt	nt	-25%[46.1 µM]	23%	nt
O=C(CC(=O)c1ccccc1)Nc1ccccc1	-13%	7%[46.1 µM]	60%[activator]	nt	nt	?	nt	nt
Cn1cccc1C(=O)NC(=O)COC(=O)C12CC3CC(CC(O)(C3)C1)C2	3%	?	?	-4%	0.7%	?	-4%	13%
CC(=O)NCCC(=O)Nc1sc2c(c1-c1nc3ccccc3[nH]1)CCCC2	3%	-6%	11%	-16%	-8.8%	-17%	3%	-13%
CCC1CCCCN1C(=S)NC(=O)c1ccc([N+](=O)[O-])cc1 (stereo not given)	nt	3%	-9%	-20%	-5.5%	9%	-21%	-4%
O=C(OC(C(=O)c1c[nH]c2ccccc12)c1ccccc1)c1cnccn1 (stereo not given)	22%	nt	-22%	-1%	nt	nt	-1%	nt
Cc1coc2cc3oc(=O)ccc3cc12	?	nt	16%	3%	nt	nt	-3%	nt
CCCCCCc1ccc(N2C[C@H](CCCCC)[C@@H](CC(=O)NCc3ccccc3)C2=O)cc1	22%	nt	-10%	4%	nt	nt	0%	nt
COc1ccc(-n2ccn(Cc3ccccc3C)c(=O)c2=O)cc1	nt	nt	3%	nt	-1.7%	-8%[46.1 µM]	nt	1%
Cc1ccc2c(Cl)c(C(=O)NCC(c3ccco3)N3CCCC3)sc2c1 (stereo not given)	6%	nt	25%	-2%	nt	nt	-3%	nt
O=C(CNCc1cccs1)Nc1cc(S(=O)(=O)N2CCCC2)ccc1Cl	13%	nt	-9%	5%	nt	nt	3%	nt
CC(=O)c1ccc(N2CCN(C(=O)Cn3cnc(S(=O)(=O)N4CCCCC4)c3)CC2)cc1	17%	nt	-5%	0%	nt	nt	21%	nt
CCOC(=O)c1c(-c2ccco2)csc1NC(=O)CSc1nnc(N)s1	-12%	-15%	-11%	25%	-4.9%	18%	?	-11%
CCCOc1ccc(-c2nnn(CC(=O)N3CCC(C)CC3)n2)cc1	-13%	9%	nt	-2%	-4.0%	-26%	-15%	-4%
COc1ccc(NC(=O)CCN2CCCC(C)C2)cc1 (stereo not given)	-11%	22%	-15%	4%	1.4%	-1%	3%	7%
CCn1ncc(/C=C/C(=O)NCc2cnn(C)c2C)c1C	3%	?	5%	2%	-1.1%	3%	3%	-4%
CCC(C)NC(=O)CNC(=S)N(CCCN1CCOCC1)Cc1cccs1 (stereo not given)	-9%	5%	1%	5%	0.0%	12%	9%	15%
CC(=O)c1ccc(NC(=O)c2sc3nc4c(cc3c2N)N2CCC4CC2)cc1	nt	29%[46.1 µM]	?	nt	-7.5%	?	nt	-24%
O=C(O)c1cccc(S(=O)(=O)Nc2cccc3ccccc23)c1	0%	-18%[46.1 µM]	-12%	5%	nt	-15%[46.1 µM]	3%	nt
CNC(=O)c1ccc(OC2CSC2)cc1	4%	-4%[46.1 µM]	12%	7%	1.2%	-7%	nt	0%
COc1cccc(C2C(C(C)=O)=C(O)C(=O)N2CCc2c[nH]c3ccccc23)c1 (stereo not given)	11%	-7%[46.1 µM]	11%	7%	-2.7%	1%	2%	3%

Bioassay records deposited in PubChem BioAssay by National Center for Advancing Translational Sciences (NCATS).
